Source: PubChem BioAssay (several laboratories)
Beta apoptosis = beta cell apoptosis inhibition; INS-1E cytokine-induced death, ATP luminescence, 48 h; percent of positive-control rescue, neutral wells zero; protection from apoptosis, % (concentration not given with the values); hit rate 0.8% among 300,000; AID 435005;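 active = all replicates at 75% or more, or half of them and the mean; inconclusive = half reach 75% but not the mean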;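 note: 0% = cytokine-treated negative control wells and 100% = positive control rescue; higher means more ATP so stronger rescue from cytokine killing; wells of about 40 µL received 100 nL stock; the first replicate is given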
RanGTP-Imp inh = disruptors of Ran-importin-beta complex formation – biochemical, FRET, CFP-Ran, YFP-importin-beta, homogeneous, primary screen; hit rate 1.1% among 300,000; cell-free CFP-Ran/YFP-importin-beta FRET ratio; inhibition, % (concentration not given with the values); AID 2216;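 active = most replicates above 15%; inconclusive = exactly half above 15%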;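 note: 0% = DMSO wells and 100% = Ran loaded with GDP instead of GTP; wells of about 40 µL received 100 nL stock; the first replicate is given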
T cruzi repl = blocks replication of Trypanosoma cruzi; T. cruzi beta-gal in NIH3T3, luminescence, 90 h; inhibition, % (no concentration beside the values); hit rate 1.4% among 300,000;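 active = mean inhibition across valid replicates above about 55%, limit read from the data; inconclusive = mean below that limit but half or more replicates reach it; inactive = mean below it, under half of replicates reach it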;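 note: signal also drops with host cell toxicity which is not excluded here; 0% = plate median of DMSO wells and 100% = zero luminescence signal; higher percent means less beta-gal luminescence so fewer parasites; stock transfer was 50 nL into about 50 µL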
Calb FLC = affects C. albicans growth with fluconazole; hit rate 0.57% among 300,000; growth inhibition, % (test concentration not listed); C. albicans CaCi-2 (fluconazole-resistant clinical isolate) + fluconazole, Alamar Blue growth, 48 h;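 active = most replicates above 75%; inconclusive = exactly half above 75%; inactive = most below 75%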;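 note: all wells also contain fluconazole at 8 µg/ml as a sub-toxic cotreatment; 0% = median of DMSO wells and 100% = median of geldanamycin control wells; wells of about 8 µL received 7.5 nL stock; the first replicate is given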
A1 inh = inhibitors of the anti-apoptotic protein A1, read as caspase activation. MEF A1-2A-BIM cells, Caspase-Glo 3/7 luminescence, 3 h; percent of clofoctol response, vehicle zero. caspase activation, % (no concentration beside the values). hit rate 0.066% among 330,000;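 active = over half of replicate activation scores above 10%, or exactly half above 10 with the replicate mean above 10; inconclusive = replicate mean below 10 yet half the replicates above 10; inactive = over half of replicates below 10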;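 note: wells of about 30 µL received 50 nL stock; many hits fall short of the cut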
AF4-AF9 inh = inhibitors of human MLL-AF4/AF9 interaction; P42568; AlphaScreen, biotin-AF4 peptide binding to FLAG-AF9; inhibition, % at 10 µM; hit rate 0.47% among 350,000; AID 651704;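 active = every replicate reaching a set inhibition limit, whatever the replicate mean, cut at about 25% in these data; inconclusive = mean inhibition reaches that limit but some replicates miss it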;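 note: 0% = plate neutral control median and 100% = total signal loss; the record names both 10 and 1 µM as test concentration; the first replicate is given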
Target sequence (P42568 whole entry, looked up): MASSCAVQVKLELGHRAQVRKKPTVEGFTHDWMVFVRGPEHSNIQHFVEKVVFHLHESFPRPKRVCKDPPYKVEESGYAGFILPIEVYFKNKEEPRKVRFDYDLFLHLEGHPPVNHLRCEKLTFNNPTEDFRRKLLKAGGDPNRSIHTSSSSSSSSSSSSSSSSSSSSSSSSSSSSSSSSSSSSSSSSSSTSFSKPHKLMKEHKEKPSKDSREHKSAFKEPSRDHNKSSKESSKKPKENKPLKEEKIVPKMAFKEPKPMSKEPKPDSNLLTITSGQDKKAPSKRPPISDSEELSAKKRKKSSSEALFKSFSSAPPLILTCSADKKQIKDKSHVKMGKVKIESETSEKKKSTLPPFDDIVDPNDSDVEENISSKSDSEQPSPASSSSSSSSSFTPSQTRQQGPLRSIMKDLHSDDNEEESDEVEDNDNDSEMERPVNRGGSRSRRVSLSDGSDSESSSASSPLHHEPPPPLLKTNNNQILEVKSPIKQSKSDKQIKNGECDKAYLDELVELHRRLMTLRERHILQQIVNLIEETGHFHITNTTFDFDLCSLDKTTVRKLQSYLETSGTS
Ecoli rRNA inh = inhibitors of bacterial rRNA selective over humanized ribosomes; E. coli WT GFP vs humanized-ribosome RFP mutants, fluorescence, 24 h; hits give low values; DMSO median 0, no signal -100; GFP signal change (wild-type ribosome), % (concentration not given with the values); hit rate 1.6% among 350,000;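 active = significant combined selectivity score with lowered wild-type GFP, culture density cut under 30%, mutant RFP and density less affected; inactive = any of these conditions unmet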; note: one replicate is shown; some compounds called inactive have numbers as strong as hits
Vif A3G = HIV-1 Vif–A3G interaction blockers – biochemical, TR-FRET, GST-Vif 1-94, biotin-A3G peptide, dose response retest, primary screen (AID 1117319) | TR-FRET GST-Vif / biotin-A3G peptide binding; higher % means a stronger effect; test concentration not given here; strong numbers were not always called active | one-dose inhibition, %; IC50 in µM for titrated hits | hit rate 0.57% among 260,000;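 active = above the screen mean plus three standard deviations and confirmed in dose response; inconclusive = results disagree or hit not tested in dose response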;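 note: Vif residues 1-94 fused to GST binding biotinylated APOBEC3G peptide 110-148; 0% = full assay without inhibitor and 100% = GST in place of GST-Vif; retest series ran down from 100 µM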
Ecoli rRNA inh OD600 = second read-out of Ecoli rRNA inh, no call of its own (marks repeat the call); OD600 change, %; measured here: OD600 growth;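 optical density of the mix in the first replicate; 0 = DMSO median and -100 = no signal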
Ecoli rRNA inh RFP = recorded beside Ecoli rRNA inh, whose call it bears; RFP signal change, %; measured here: RFP humanized mutant strains;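 first replicate; 0 = DMSO median and -100 = no signal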
Active calls of the source: *; ? = inconclusive; · = no result given; & = joins results of further samples. The list is partial, so the mix of outcomes need not match the whole.

SMILES	Beta apoptosis	RanGTP-Imp inh	T cruzi repl	Calb FLC	A1 inh	AF4-AF9 inh	Ecoli rRNA inh	Ecoli rRNA inh OD600	Ecoli rRNA inh RFP	Vif A3G
O=C1C2C3CCC(C3)C2C(=O)N1c1ccc2ccccc2c1 (stereo unspecified)	0	-11	-9	12	-0.3	-5.9	11	8	-0.6	·
CCN1C2=C(C(=O)CCC2)C(c2ccc(O)cc2)C2=C1CCCC2=O	0	0.9	2	-4	-0.8	·	·	·	·	?
CCOC(=O)C(Sc1cc(C)nc(N)n1)C(C)=O (stereo unspecified)	-2	1.3	-20	3	1.1	·	·	·	·	-3%
O=C1c2ccccc2C(=O)N1CCSC(=S)N1CCOCC1	2	-5.1	3	2	-0.9	-4.1	9	1	-4.3	-4%
CNC(=O)[C@@H]1C[C@H]1[C@@H](NC(=O)OCc1ccccc1)c1ccccc1	2	-0.1	-5	17	0.4	2.0	7	-1	-2.1	17µM*
C=CCN1C(=O)[C@@H]2Cc3c([nH]c4ccccc34)C(c3ccc(O)cc3)N2C1=S (stereo partly specified)	·	-1.0	8	23	0.8	·	·	·	·	1%
COc1ccc(S(=O)(=O)N2N=C(c3ccc(NS(C)(=O)=O)cc3)CC2c2ccco2)cc1 (stereo unspecified)	-2	10	20	1	0.2	0.2	-10	-24	2.8	-2%
Cc1ccc(S(=O)(=O)c2ccc(Cl)cc2)cc1S(=O)(=O)NC(C)C(=O)O (stereo unspecified)	-15	3.4	4	5	-0.3	·	·	·	·	10%
O=C(CCC1CCCC1)Nc1ccc([N+](=O)[O-])cn1	-6	2.1	1	-13	0.6	·	·	·	·	1%
CCOc1ncccc1C(=O)NC(C)CCc1ccccc1 (stereo unspecified)	-7	-0.8	4	-1	0.2	-0.5	0	-8	1.8	3%
COc1ccccc1NC(=O)Cn1cnc2sc(C(=O)NCc3ccco3)c(C)c2c1=O	·	-1.7	-4	-1	-0.3	·	·	·	·	18%&6%
COc1cc([C@@H]2C[C@H]3CN(c4ccccc4)C(=O)[C@]34CCCN24)cc(OC)c1OC	-29	-3.1	24	-6	1.0	-2.4	-17	-6	0.3	-3%
O=C1CC(N2CCC(c3nc4ccccc4o3)CC2)C(=O)N1Cc1cccs1 (stereo unspecified)	-3	1.0	-9	1	0.5	·	·	·	·	25%
CCc1nnc(NC(=O)c2ccc(S(=O)(=O)N3CCCC(C)C3)cc2)s1 (stereo unspecified)	-9	-4.5	2	-5	0.6	-0.2	8	17	0.1	·
Cc1ccc(C2CC(=O)Nc3c2ccc2ccccc32)cc1[N+](=O)[O-] (stereo unspecified)	7	-5.4	10	-3	-0.7	·	·	·	·	-3%
Cc1ccc(C)c(N2CCN(S(=O)(=O)c3ccc(-c4cc(C)no4)s3)CC2)c1	3	4.1	51	5	1.3	2.2	6	7	-3.1	·
O=C(Oc1cccc2cccnc12)c1cccc([N+](=O)[O-])c1	1	-0.3	-14	-3	-0.3	-0.4	20	12	-1.1	-1%
COc1ccc(C2NC(=O)NC(C)=C2C(=O)OC2CCCC(C)C2)cc1 (stereo unspecified)	0	-3.5	6	4	0.6	-4.6	2	-10	3.5	·
Cn1c(O)c(N=NC(=O)c2cc(-c3cccs3)nc3ccccc23)c2ccccc21	24	-4.6	13	-1	-1.2	·	·	·	·	5%
Nc1ccccc1C(=O)NNC1=C(C(=O)C(F)(F)F)CCC1	-13	0.7	-10	-21	-2.6	6.1	9	6	0.6	-3%

An excerpt from above in order of count of non-hydrogen atoms, rising.
SMILES	Beta apoptosis	RanGTP-Imp inh	T cruzi repl	Calb FLC	A1 inh	AF4-AF9 inh	Ecoli rRNA inh	Ecoli rRNA inh OD600	Ecoli rRNA inh RFP	Vif A3G
O=C1c2ccccc2C(=O)N1CCSC(=S)N1CCOCC1	2	-5.1	3	2	-0.9	-4.1	9	1	-4.3	-4%
CCN1C2=C(C(=O)CCC2)C(c2ccc(O)cc2)C2=C1CCCC2=O	0	0.9	2	-4	-0.8	·	·	·	·	?
Cc1ccc(C)c(N2CCN(S(=O)(=O)c3ccc(-c4cc(C)no4)s3)CC2)c1	3	4.1	51	5	1.3	2.2	6	7	-3.1	·
Cn1c(O)c(N=NC(=O)c2cc(-c3cccs3)nc3ccccc23)c2ccccc21	24	-4.6	13	-1	-1.2	·	·	·	·	5%

Next compounds
SMILES	Beta apoptosis	RanGTP-Imp inh	T cruzi repl	Calb FLC	A1 inh	AF4-AF9 inh	Ecoli rRNA inh	Ecoli rRNA inh OD600	Ecoli rRNA inh RFP	Vif A3G
CCc1ccc(CN(C)Cc2nc(COc3ccccc3)no2)nc1	-4	6.8	-6	7	1.1	1.6	1	-2	-0.7	-3%
Cc1ccc(S(=O)(=O)Cc2ccc(C(=O)NCc3cccs3)o2)cc1	-8	5.9	-18	21	-0.7	·	·	·	·	2%
Cc1cccc(-c2oc3ccc(-c4ccc5c(c4)OCO5)cc3c2C(=O)OCc2ccc(O)cc2)c1	5	-1.9	24	-5	0.7	-0.5	14	7	-9.2	·
CCC1CCCCN1CCCNC(=O)Cn1nc(-c2ccc(C)cc2)ccc1=O (stereo unspecified)	-4	0.4	0	-2	-0.3	·	·	·	·	0%
Cc1cnc(NC(=O)C2CC(=O)N(c3ccc4c(c3)OCCO4)C2)s1 (stereo unspecified)	-13	·	·	·	-0.7	-3.1	-2	-4	-0.3	3%
CN(Cc1ccccc1)C(=O)CN1C(=O)C2C3C=CC(C3)C2C1=O (stereo unspecified)	-6	0.8	·	16	-0.1	·	·	·	·	2%
CN(C(=O)c1ccc(NC(=O)Cc2cccc([N+](=O)[O-])c2)cc1)C1CC1	4	·	·	·	-0.2	-5.5	2	5	0.1	·
CSc1cccc(NC(=O)c2ccccn2)c1	3	-2.8	-14	10	-8.7	·	·	·	·	?
CC(C)(C)N=C1NN=C(c2ccc(Cl)cc2)CS1	-1	?	1	-4	-1.2	5.2	5	10	-1.4	?
CC(/C=C1\SC(=S)N(C(C(=O)O)c2ccccc2)C1=O)=C\c1ccccc1 (stereo unspecified)	-8	2.1	-4	11	-0.6	-0.8	-27*	-7.0*	1.9*	·
COc1ccc(CN(C)C(C)C(=O)N(C)CC(=O)Nc2ccc(C)cc2)cc1F (stereo unspecified)	-1	·	·	·	0.0	1.3	-1	-6	0.4	2%
COc1ccc(C(=O)N2CCN(c3cccc(Cl)c3)CC2)cc1	-7	2.1	-22	19	0.4	2.3	-12	-9	8.1	-2%
Cc1cc(-c2onc(C)c2C(N)=O)no1	-4	5.1	-12	2	0.1	-0.6	3	0	-2.2	-3%
COc1ccc(-c2ccc(OC)c([C@H]3[C@H]4C=CC[C@@H](C)[C@@H]4C(=O)N3Cc3ccccc3)c2)cc1C	-1	-4.1	17	2	2.9	3.3	11	14	-0.8	-7%
O=C(O)CSCc1nc2scc(-c3ccccc3)c2c(=O)[nH]1	-7	-1.4	-10	0	1.1	-2.4	14	3	2.3	·
O=C(CSc1nnc(-c2ccco2)o1)c1ccc[nH]1	-7	1.4	-2	-1	1.3	-0.5	14	12	-0.9	24%
CCCCC(c1nnnn1CS(=O)(=O)c1ccc(C)cc1)N1CCN(c2ccccc2)CC1 (stereo unspecified)	16	2.0	33	2	0.1	·	·	·	·	-1%
O=C(c1nc2n(n1)C(c1ccc(Cl)cc1)C=C(c1ccccc1)N2)N1CCOCC1 (stereo unspecified)	8	-67	9	16	1.2	·	·	·	·	4%
CC(=O)Nc1ccc(NC2CCCCC2NS(=O)(=O)c2ccc(Cl)cc2)cc1 (stereo unspecified)	2	2.2	-4	16	0.6	5.8	6	-8	4.2	·
O=C(N/N=C/c1oc(O)c2ccccc12)c1ccccc1	6	-1.9	-4	1	-0.1	-8.0	2	-7	7.2	·
Cc1nc(C)c(-c2nnc(-c3cccc(S(=O)(=O)N(C)C)c3)o2)cc1C(=O)NN	0	-2.6	-7	-2	0.3	-2.3	-4	4	0.2	-7%
CCn1c(CCC(=O)N(C)CC(=O)Nc2cccc(F)c2)nc2cc(S(=O)(=O)N(C)C)ccc21	9	3.0	-2	5	-0.8	0.5	-1	7	-0.9	-4%
COc1cccc2cc(C(=O)NC3CC(C)(C)NC(C)(C)C3)c(=O)oc12	-1	-1.3	-12	-6	0.7	·	·	·	·	·
COc1ccc(OC)c(NC(=O)c2cccnc2Sc2ccccc2)c1	-8	-0.5	0	35	0.3	·	·	·	·	·
O=C(CN1CCCCCC1=O)N1CCN(S(=O)(=O)c2cccs2)CC1	-1	·	-10	?	0.9	2.3	-7	-6	0.3	12%
Nc1nc(SCC(=O)Nc2ccc3c(c2)OCO3)n[nH]1	0	-1.5	-7	-8	0.1	0.1	0	8	6.5	14%
COc1ccc(C(NC(=O)C(C)(C)C)NC(=O)C(C)(C)C)cc1	-8	-2.9	-16	-42	0.3	·	·	·	·	14%
CCN1CCN(C(=O)Nc2cccc(C(F)(F)F)c2)CC1	-7	-2.3	8	16	0.0	·	·	·	·	-7%
O=C(Nc1ccc(F)cc1)c1nc2c(nnn2Cc2cccc3ccccc23)c(=O)[nH]1	5	1.7	1	25	-1.3	-2.7	-3	3	-0.2	-6%
Cc1cccc(NC(=O)NNC(=O)c2sccc2-n2cccc2)c1	-2	-2.0	-8	-14	0.4	-0.6	-18	-24	-3.7	4%
Cc1cc(C(F)(F)F)c(C#N)c(SCC(=O)Nc2nc3cc(Br)ccc3s2)n1	24	-0.2	16	28	0.3	-2.0	-7	-13	-2.6	·
C/C(=N\NC(=O)c1ccccc1)c1ccc(N2CCOCC2)cc1	1	5.4	-7	-1	0.3	·	·	·	·	-5%
Cc1ccc(Cl)cc1NC(=O)CNCC(c1ccccc1)N(C)C (stereo unspecified)	-1	4.9	0	2	-0.1	0.3	8	5	-2.9	-4%
COc1ccccc1N(CC(=O)Nc1ccc2c(c1)OCCO2)S(C)(=O)=O	1	-1.5	6	-8	-0.1	·	·	·	·	1%
COc1ccc(Cc2noc(CN(C)CCN3CCc4ccccc4C3)n2)cc1OC	-1	-0.8	25	-12	-0.1	5.7	10	3	-0.5	0%
Cc1ccc(S(=O)(=O)N2CCN=C2SCc2c(F)cccc2Cl)cc1	0	2.5	7	2	-0.2	-0.7	5	6	-1.8	-1%
COc1cc(-c2nnc(-c3cccs3)o2)cc(OC)c1OC	0	2.2	3	-3	0.3	·	·	·	·	3%
CCN(CC)CCNC(=O)c1ccc(NC(=O)Nc2cccc3ccccc23)cc1	1	0.6	13	-5	0.1	0.4	0	0	1.6	-2%
